Source: PubChem BioAssay
AmpC inh no det = blocks E. coli AmpC beta-lactamase in absence of detergent; Potency, µM (top dose mostly 28.7 µM), without a hit: at the top dose activity change, negative = inhibition; 71,000 compounds, 1.8% hits; AmpC nitrocefin hydrolysis, absorbance 480 nm, no detergent; potencies from a single point are estimates; active = falling curve, for most hits resting on a single point; inconclusive = weak or doubtful change; inactive = flat or rising curve; also: % of control where 0% means no effect; about half of the hits show no inhibition at the top dose; a quarter of the inactives give rising signals
Target sequence (P00811 whole entry, looked up): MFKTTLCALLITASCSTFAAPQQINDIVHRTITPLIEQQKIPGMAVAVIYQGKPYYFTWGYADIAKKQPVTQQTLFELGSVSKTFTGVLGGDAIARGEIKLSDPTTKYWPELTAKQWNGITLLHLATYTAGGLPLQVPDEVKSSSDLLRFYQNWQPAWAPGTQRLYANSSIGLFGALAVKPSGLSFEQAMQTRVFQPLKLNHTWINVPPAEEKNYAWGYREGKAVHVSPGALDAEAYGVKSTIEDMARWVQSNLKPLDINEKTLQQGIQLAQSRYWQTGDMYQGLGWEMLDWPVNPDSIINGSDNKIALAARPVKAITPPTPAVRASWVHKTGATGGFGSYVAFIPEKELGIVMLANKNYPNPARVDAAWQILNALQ
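AmpC in 20 mM phosphate buffer pH 7.0 was preincubated 15 min at room temperature with compounds. Nitrocefin (800 uM stock) was then added and hydrolysis followed at 480 nm every 20 s for 4 min.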
* hit, by the source's call; u = inconclusive; & = joins results of further samples; [ ] = remark or other dose. Potency is read from the fitted curve at half-maximal effect. This is a subset; rates above refer to the full screens.

#1 Cc1onc(-c2ccccc2Cl)c1C(=O)N[C@H]1C(=O)N2[C@H]1SC(C)(C)[C@H]2C(=O)O
  AmpC inh no det: 0.0016µM*

#2 Cc1scc2c1N(C(=O)CN1CCN(C)CC1)c1ccccc1NC2=O
  AmpC inh no det: 25%

#3 C[C@@]12CC[C@H]3[C@@H](CCC4=CC(=O)CC[C@]43C)[C@H]1CC[C@H]2C(=O)CO
  AmpC inh no det: 34%[12.8 µM]

#4 N=c1nc(N2CCCCC2)cc(N)n1O
  AmpC inh no det: 24%

#5 COc1ccc(C(=O)c2ccccc2)c(O)c1
  AmpC inh no det: -15%

#6 Nc1ncnc2nc[nH]c12.Nc1ncnc2nc[nH]c12.[Cl][Pt]([Cl])([Cl])[Cl]
  AmpC inh no det: -12%[5.75 µM]

#7 Cc1cc(Cn2cnc3c2C[C@@H](C(=O)O)N(C(=O)C(c2ccccc2)c2ccccc2)C3)ccc1N(C)C
  AmpC inh no det: 65%

#8 CCN(CC)CCOc1ccc(Cc2ccccc2)cc1
  AmpC inh no det: 65%

#9 COC(=O)c1ccccc1O
  AmpC inh no det: 3%

#10 CC[C@]1(O)C[C@H]2CN(CCc3c([nH]c4ccccc34)[C@](C(=O)OC)(c3cc4c(cc3OC)N(C)[C@@H]3[C@](O)(C(=O)OC)[C@H](OC(C)=O)[C@]5(CC)C=CCN6CC[C@]43[C@@H]65)C2)C1
  AmpC inh no det: 144%

#11 C[C@H](N)C1CCC(C(=O)Nc2ccncc2)CC1 (some centres not stated)
  AmpC inh no det: -10%

#12 CCCOc1ccc(C(=O)OCCN(CC)CC)cc1N
  AmpC inh no det: 7%[12.8 µM]

#13 CC(C)NNC(=O)c1ccncc1
  AmpC inh no det: -8%[12.8 µM]

#14 COc1cc(C=O)ccc1O
  AmpC inh no det: -7%

#15 Nc1c2ccccc2nc2ccccc12
  AmpC inh no det: -13%

#16 CCCCNCC
  AmpC inh no det: -5%

#17 CCc1cccc(CC)c1NC(=O)CN(CC(=O)O)CC(=O)O
  AmpC inh no det: 3%[12.8 µM]

#18 CN(C)C/C=C(\c1ccc(Br)cc1)c1cccnc1
  AmpC inh no det: u

#19 Nc1ncnc2c1c(-c1ccc(Oc3ccccc3)cc1)cn2C1CCCC1
  AmpC inh no det: 28%

#20 CCc1ccccc1OC[C@@H](O)CN[C@H]1CCCc2ccccc21
  AmpC inh no det: 13%

#21 CC(C)(CO)[C@H](O)C(=O)NCCCO
  AmpC inh no det: -1%[12.8 µM]

#22 CC[C@@]12CCCN3CCc4c(n(c5ccccc45)[C@](O)(C(=O)OC)C1)[C@H]32
  AmpC inh no det: 2%

#23 CN[C@@H]1[C@H](O)[C@H](NC)[C@@H]2O[C@]3(O)C(=O)C[C@@H](C)O[C@H]3O[C@@H]2[C@H]1O
  AmpC inh no det: 4%

#24 Cn1ccc2cc3c(cc21)CCN3C(=O)Nc1cccnc1
  AmpC inh no det: 31%&23%

#25 CCCCOc1cc(C(=O)OCCN(CC)CC)ccc1N
  AmpC inh no det: 6%[12.8 µM]

Next section
#	canonical_smiles	AmpC inh no det
26	C=C1c2cccc(O)c2C(O)=C2C(=O)[C@@]3(O)C(O)=C(C(N)=O)C(=O)[C@@H](N(C)C)[C@@H]3[C@@H](O)[C@H]12	u
27	COc1cc(N)c(Cl)cc1C(=O)N[C@H]1CCN(CCCOc2ccc(F)cc2)C[C@H]1OC	62%[12.8 µM]
28	Cc1cc(=O)oc2cc(O)ccc12	6%[12.8 µM]
29	C=Cc1ccccc1	-6%
30	COc1cc2nc(N3CCN(C(=O)[C@@H]4COc5ccccc5O4)CC3)nc(N)c2cc1OC	30%[12.8 µM]
31	CCCCN(CCCC)CCCOC(=O)c1ccc(N)cc1	-2%[12.8 µM]
32	O=C1c2c(O)ccc(O)c2C(=O)c2c(NCCNCCO)ccc(NCCNCCO)c21	-4%[12.8 µM]
33	Cc1ccsc1/C=C\C1=NCCCN1C	-12%[12.8 µM]
34	CCCCCCCCCCCCCCC[C@@H](O)[C@@H](N)CO	23%
35	Cc1c(C(=O)O)c(O)cc2c1C(=O)c1c(O)c([C@@H]3O[C@H](CO)[C@@H](O)[C@H](O)[C@@H]3O)c(O)c(O)c1C2=O	51%
36	CN(C(=O)c1c(O)c2ccccc2n(C)c1=O)c1ccccc1	7%

Compounds above that contain a thiophene ring, fused or not (two):
#	canonical_smiles	AmpC inh no det
2	Cc1scc2c1N(C(=O)CN1CCN(C)CC1)c1ccccc1NC2=O	25%
33	Cc1ccsc1/C=C\C1=NCCCN1C	-12%[12.8 µM]

Grouped by structure: the entries above containing nitrogen in an aromatic ring (14)
#	canonical_smiles	AmpC inh no det
1	Cc1onc(-c2ccccc2Cl)c1C(=O)N[C@H]1C(=O)N2[C@H]1SC(C)(C)[C@H]2C(=O)O	0.0016µM*
4	N=c1nc(N2CCCCC2)cc(N)n1O	24%
6	Nc1ncnc2nc[nH]c12.Nc1ncnc2nc[nH]c12.[Cl][Pt]([Cl])([Cl])[Cl]	-12%[5.75 µM]
7	Cc1cc(Cn2cnc3c2C[C@@H](C(=O)O)N(C(=O)C(c2ccccc2)c2ccccc2)C3)ccc1N(C)C	65%
10	CC[C@]1(O)C[C@H]2CN(CCc3c([nH]c4ccccc34)[C@](C(=O)OC)(c3cc4c(cc3OC)N(C)[C@@H]3[C@](O)(C(=O)OC)[C@H](OC(C)=O)[C@]5(CC)C=CCN6CC[C@]43[C@@H]65)C2)C1	144%
11	C[C@H](N)C1CCC(C(=O)Nc2ccncc2)CC1 (some centres not stated)	-10%
13	CC(C)NNC(=O)c1ccncc1	-8%[12.8 µM]
15	Nc1c2ccccc2nc2ccccc12	-13%
18	CN(C)C/C=C(\c1ccc(Br)cc1)c1cccnc1	u
19	Nc1ncnc2c1c(-c1ccc(Oc3ccccc3)cc1)cn2C1CCCC1	28%
22	CC[C@@]12CCCN3CCc4c(n(c5ccccc45)[C@](O)(C(=O)OC)C1)[C@H]32	2%
24	Cn1ccc2cc3c(cc21)CCN3C(=O)Nc1cccnc1	31%&23%
30	COc1cc2nc(N3CCN(C(=O)[C@@H]4COc5ccccc5O4)CC3)nc(N)c2cc1OC	30%[12.8 µM]
36	CN(C(=O)c1c(O)c2ccccc2n(C)c1=O)c1ccccc1	7%
